Assay outcomes from PubChem.
Autofluor counter: counter-screen for toxin protease inhibitors: compound fluorescence; fluorescence intensity (test concentration not listed); compound autofluorescence counterscreen, microsphere flow cytometry; stronger effect = higher value; AID 624483; 3.1% of 360,000 active;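 active = at least 3 SD above the mean of all compounds, about 16000 in these data; inconclusive = too few beads counted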;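 also: 100 nL of 1 mM stock went into each well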
Mtb hypoxia inh: reduces hypoxia-regulated biosensor signal in M. tuberculosis; 0.1% of 300,000 active; fluorescence inhibition, % (concentration not given with the values); M. tuberculosis hypoxia-regulated fluorescent reporter, fluorescence; AID 1159583;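 active = 35 to 45% if threefold the growth effect, above 45% if 1.5-fold the growth effect; inactive = the rest, general growth blockers included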;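 also: wells of about 50 µL received 100 nL stock; 0% = vehicle wells and 100% = reference inhibitor wells; whole bacteria with a GFP reporter of the hypoxia response; strong numbers were not always called active; many hits fall short of the cut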
BJeLR lethal: BJeLR cell viability loss | BJeLR (HRASV12) viability, CellTiter-Glo ATP luminescence, 48 h; reference of the scale not given here | inhibition, % (test concentration not listed) | 0.17% of 300,000 active | AID 1554;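 active = replicate mean above 50%; inconclusive = above 50% but judged a plate artefact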;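 also: 50 nL library stock added to about 25 µL; numbers are from one replicate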
RN4220 kill: kills Staphylococcus aureus RN4220; S. aureus RN4220 growth, OD600, 16 h; inhibition, % (test concentration not listed); 0.33% of 330,000 active; AID 1259311;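 active = z-score of -3 or lower and OD600 up to 0.18 on both plates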;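 also: plate controls were untreated cells for no effect and reference antibiotic for full effect; stock transfer was 100 nL into about 80 µL; one replicate is shown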
Sa ugtP lethal: compounds lethal to S. aureus RN4220 ugtP deletion mutant | OD600 growth, 16 h; some inactives read as strong as hits | growth inhibition, % (concentration not given with the values) | 0.54% of 330,000 active;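 active = z-score under -3 and OD600 up to 0.15 on both plates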;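 also: plate controls were untreated wells for no effect and antibiotic for full effect; wells of about 80 µL received 100 nL stock; the first replicate is given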
PrP UTR inh: suppresses PrP 5' UTR mRNA reporter expression; cell-based PrP 5' UTR mRNA reporter, plate reader; inhibition, % (no concentration beside the values); 0.35% of 340,000 active;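 active = every replicate at 50% or more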;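 also: 0 = median of the neutral control wells; tested in H4 reporter cells; numbers are from one replicate; inactives centre near -14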
Mtb hypoxia inh growth: further read-out of Mtb hypoxia inh, marked with its call; growth inhibition, %; measured here: M. tuberculosis growth (absorbance);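 0% = vehicle and 100% = reference antibiotic; read after six days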
Starred values were filed as active, the others as inactive; ? = inconclusive; · = no result given.

item	smiles	Autofluor counter	Mtb hypoxia inh	Mtb hypoxia inh growth	BJeLR lethal
1	Cc1ccc(NC(=O)CCNS(=O)(=O)c2ccc3c(c2)CCC(=O)N3)c(Br)c1	6822	6	6	-9
2	Cc1ccc(C(C)C)c(OCC(=O)NN=C2CCCC2)c1	4502	-4	2	1
3	CC(C)CCNC(=O)NC(=O)COC(=O)c1cc(S(=O)(=O)N2CCOCC2)ccc1N1CCCCC1	3564	10	-1	-24
4	CCOC(=O)N1CCN(c2ccc(C(F)(F)F)cn2)CC1	2010	0	-4	-1
5	COC(=O)c1cc(NC(=O)CC2CCCC2)cc(C(=O)OC)c1	4050	7	5	-5
6	NC(=O)C1CCN(C(=O)CCC(=O)c2ccc(Br)cc2)CC1	3280	10	10	0
7	Cc1cccc(N(CC(=O)NC2CCCC2)C(=O)CCCC(=O)Nc2ccccn2)c1	2824	1	6	-1
8	COc1ccc(Cc2c(O)nc(SCC(=O)N3CCCCCC3)[nH]c2=O)cc1	8902	-2	-10	5
9	O=C(O)CCC(=O)N1CCc2cc(S(=O)(=O)N3CC=C(c4ccccc4)CC3)ccc21	6777	2	14	-8
10	CC(C)N(C(=O)[C@H]1CC(CC(=O)NCc2cccc(C(F)(F)F)c2)C(=O)N2CCc3c([nH]c4ccccc34)[C@]12C)C(C)C (some centres not stated)	3931	2	14	·
11	CCC[C@@H](CN1CCC[C@H]1CN1C(N)=NC[C@H]1CC(C)C)N1C[C@@H]([C@H](C)CC)N(CCCC2CCCC2)C1=N	2962	·	·	·
12	COc1ccc(C(=O)CSc2nnc(CNc3ccc(C)cc3C)n2Cc2ccco2)cc1	5007	12	12	-12
13	C=CCn1c(SCC(=O)N(CC)C2CCS(=O)(=O)C2)nnc1-c1ccccc1 (configuration not stated)	3902	-8	-9	·
14	Clc1ccccc1N=C1SCCS1	·	3	2	1
15	CCOc1cc(CO)c(Br)cc1OCC(=O)O	·	7	12	4

item	RN4220 kill	Sa ugtP lethal	PrP UTR inh
1	4.3	10	-22
2	5.1	1	-15
3	-0.8	5	-17
4	-5.2	-2	-11
5	1.9	3	-22
6	0.0	0	-15
7	3.7	-6	-6
8	-0.7	3	-18
9	-7.6	-5	-17
10	-4.2	-10	-13
11	101*	101*	5
12	2.9	-2	-27
13	-1.2	6	-5
14	3.2	3	·
15	0.0	2	·

Next part:
item	smiles	Autofluor counter	Mtb hypoxia inh	Mtb hypoxia inh growth	BJeLR lethal
16	O=C(CN1CCC(n2nnc3cc(F)ccc32)CC1)N1CCCc2ccccc21	10843	12	7	5
17	CC1(c2ccc3ccccc3c2)NC(=O)N(CC(=O)O)C1=O (configuration not stated)	4163	3	9	-2
18	O=C(NN=Cc1ccc(-c2ccccc2[N+](=O)[O-])o1)[C@H]1C[C@@H]1c1ccccc1	·	-1	10	·
19	Cc1cc([N+](=O)[O-])cc2c1NC(=O)C2(O)N1CCCCCC1 (configuration not stated)	9949	·	·	-17
20	O=C(COC(=O)c1ccccc1Br)Nc1ccc2[nH]c(=O)[nH]c2c1	7331	5	0	0
21	CCCCN(CC)S(=O)(=O)c1ccc(C(=O)N(CCCN(C)C)c2nc3cc(C)cc(C)c3s2)cc1	2203	14	9	-2
22	CCOC(=O)C1CCN(C(=O)CNS(=O)(=O)c2ccc(Br)s2)CC1	10399	5	-2	0
23	CCN(C(=O)COC(=O)CNC(=O)c1ccc2ccccc2c1)C1CCS(=O)(=O)C1 (configuration not stated)	4319	-7	6	1
24	COc1ccc(OC)c(C(=O)NC(CC(N)=O)c2ccc(NCc3ccc(F)c(F)c3)c([N+](=O)[O-])c2)c1 (configuration not stated)	3008	13	12	-5
25	CC1CCc2c(C(=O)Oc3cccc(-n4cnnn4)c3)csc2C1 (configuration not stated)	9988	4	5	4
26	C=CCn1c(N)c(C(=O)Nc2ccc(C)c(C)c2)c2nc3ccccc3nc21	3526	7	7	6
27	O=C(CSc1nnc2c(n1)[nH]c1ccccc12)NCc1ccccc1F	3896	-4	-4	-3
28	COc1cccc(CNCCc2ccccc2)c1OC	4617	4	-1	7
29	O=C(NC(Cc1c[nH]c2ccccc12)C(=O)OCC(=O)c1cccc2ccccc12)c1cccs1 (configuration not stated)	2423	-3	8	-1
30	CCOC(=O)C1CCN(C(=O)COC(=O)CNC(=O)c2sc3ccccc3c2Cl)CC1	·	8	-4	·

item	RN4220 kill	Sa ugtP lethal	PrP UTR inh
16	6.8	11	-10
17	1.9	2	6
18	-6.2	-19	·
19	·	·	-25
20	4.0	-2	-26
21	-2.4	-28	-13
22	2.0	2	-5
23	-2.0	-1	-12
24	3.5	-16	-5
25	-2.9	-8	-23
26	-5.5	-6	-18
27	1.4	15	-24
28	4.0	1	-20
29	0.7	-14	-21
30	-0.7	3	·

Next entries
item	smiles	Autofluor counter	Mtb hypoxia inh	Mtb hypoxia inh growth	BJeLR lethal
31	Cc1ccc(Cn2c(NN=Cc3ccncc3)nc3c2c(=O)n(C)c(=O)n3C)cc1	·	-8	0	·
32	O=C(CCc1nc2ccccc2[nH]1)Nc1ccc2c(c1)OCO2	1995	·	·	16
33	Cc1nnc(NC(=O)CSc2nnc(Cc3cccn3C)n2CCc2ccccc2)s1	10949	-15	7	5
34	CCc1nc(CNC(=O)C2CCC(=O)N(Cc3ccccc3F)C2)no1 (configuration not stated)	5547	9	0	1
35	O=C(N/N=C/c1ccc(O)cc1)c1csc2c1CCCC2	10049	·	·	-2
36	CCCOc1ccccc1NC(=O)c1ccc([N+](=O)[O-])cc1	4658	-1	5	-7
37	Nc1nc(-c2c(Cl)cccc2Cl)no1	5910	-9	-11	-1
38	COc1ccc(C(=O)c2c3ccc([N+](=O)[O-])cc3[n+]([O-])n2CCCC(N)=O)cc1	2998	16	19	1
39	CN(CCC#N)C(=O)CSc1nnc(-c2ccco2)n1N	3861	-8	5	4
40	C[C@H](CO)N1C[C@H](C)[C@@H](CN(C)Cc2ccc(Cl)c(Cl)c2)Oc2c(NC(=O)Cc3ccccc3)cccc2C1=O	3019	7	3	·
41	CC(=O)c1cccc(NC(=O)Cn2cc3c(n2)CCCC3)c1	5838	·	·	-3
42	COC(=O)c1ccc(OCC(O)Cn2nnc3ccccc32)cc1 (configuration not stated)	6691	2	-3	-3
43	O=C(O)Cn1nnc(-c2ccc(OCc3ccccc3Cl)cc2)n1	3431	3	0	3
44	Cc1csc(SCC(=O)N2CCN(S(=O)(=O)c3ccc(Cl)cc3)CC2)n1	2482	2	8	3
45	COc1ccc(Cl)cc1NC(=O)CN(c1ccccc1)S(=O)(=O)N(C)C	2815	·	·	0

item	RN4220 kill	Sa ugtP lethal	PrP UTR inh
31	3.3	5	·
32	-7.7	-10	-6
33	-0.9	-5	-2
34	7.5	11	-9
35	·	·	-29
36	1.2	0	-9
37	2.2	9	-46
38	35	61	-20
39	2.5	-1	-8
40	55	17	-18
41	0.9	10	-21
42	4.1	2	-50
43	0.3	-1	-18
44	1.7	2	-40
45	4.9	-10	-6

(continued)
item	smiles	Autofluor counter	Mtb hypoxia inh	Mtb hypoxia inh growth	BJeLR lethal
46	O=C(Nc1ccc(-n2nncc2-c2ccco2)cc1)c1cccc(F)c1	12002	-8	-3	21
47	C=CCN(c1ccccc1)S(=O)(=O)c1cccc(C(=O)NCC(c2ccc(F)cc2)N2CCOCC2)c1 (configuration not stated)	?	-1	3	6
48	CCNC(=S)NNC(=O)c1csc2c1CCC(C)C2 (configuration not stated)	4602	·	·	0
49	COC(=O)CN1C(c2ccccc2O)Nc2ccc(Br)cc2C1c1ccccc1 (configuration not stated)	1861	7	3	6
50	CCCCNC(=O)C1CCN(S(=O)(=O)N2CCCCCC2)CC1	9833	-3	5	2
51	CC1(C)Cc2c(c(N3CCCC3)nc3sc4c(N5CCN(CCO)CC5)ncnc4c23)CO1	10075	6	10	·
52	CCC(C)NC(=O)C1c2cc(OC)c(OC)cc2C(=O)N(C)C1c1ccc(OC)cc1 (configuration not stated)	4109	15	2	5
53	CCC(C)N(C(=O)COC(=O)c1nc2nc(C)cc(C)n2n1)C1CCS(=O)(=O)C1 (configuration not stated)	?	6	-1	3
54	CCc1cccc(NC(=O)c2cccc3c2C(=O)N(C2CCCCC2)C3)c1	6035	-10	2	0
55	COc1ccccc1/C=C(/NC(=O)c1ccc(Cl)cc1Cl)C(=O)O	5282	10	-3	-7
56	COc1cc(NC(=S)N2CCN(CCO)CC2)cc(OC)c1	4000	-8	9	6
57	Cc1ccc(NC(=O)c2cnccn2)c(OC(F)F)c1	11270	3	3	-10
58	COc1ccc(N2C(S)=C(C#N)C(=O)NC23CCCCC3)cc1	4462	7	3	-4
59	O=C1C2C3C=CC(C3)C2C(=O)N1c1ccc(N2CCN(c3ccccn3)CC2)c([N+](=O)[O-])c1 (configuration not stated)	?	·	·	20
60	CC1(C)Oc2ccc(C(=O)N3CCCC3)cc2N(CC(=O)NCc2ccccc2)C1=O	4288	·	·	4

item	RN4220 kill	Sa ugtP lethal	PrP UTR inh
46	-5.4	-16	-28
47	1.3	4	-3
48	-2.4	-4	-14
49	4.8	-3	-23
50	-4.0	1	-19
51	5.5	23	13
52	3.7	6	-19
53	5.7	10	-11
54	3.3	2	-11
55	-0.7	-5	14
56	2.1	5	-39
57	0.4	3	-20
58	6.7	17	-9
59	·	·	-24
60	9.1	5	-4

The results go on:
item	smiles	Autofluor counter	Mtb hypoxia inh	Mtb hypoxia inh growth	BJeLR lethal
61	Cc1ccc(CS(=O)(=O)Cc2ccc(C(=O)NCC3CCCO3)o2)cc1 (configuration not stated)	9319	-1	-7	-1
62	COc1ccc(-n2c(=O)c3c4c(sc3n(CC(=O)Nc3cc(C)[nH]n3)c2=O)CCC4)c(OC)c1	4490	2	2	-10
63	O=C(NCc1ccc(F)cc1)c1ccccc1OCc1ccccc1	2753	0	6	4
64	COc1ccc(CC(=O)n2nc(-c3ccc(Cl)cc3)nc2NCc2ccco2)cc1	24639*	4	11	1
65	O=C(Nc1cc(S(=O)(=O)N2CCOCC2)ccc1Cl)c1ccc(=O)[nH]c1	5490	11	-4	·

item	RN4220 kill	Sa ugtP lethal	PrP UTR inh
61	0.8	-2	-4
62	4.5	4	-20
63	6.8	-11	-12
64	-7.7	11	-52
65	4.8	1	-9

By substructure: the entries above containing two or more sulfur atoms
item	smiles	Autofluor counter	Mtb hypoxia inh	Mtb hypoxia inh growth	BJeLR lethal
13	C=CCn1c(SCC(=O)N(CC)C2CCS(=O)(=O)C2)nnc1-c1ccccc1 (configuration not stated)	3902	-8	-9	·
14	Clc1ccccc1N=C1SCCS1	·	3	2	1
21	CCCCN(CC)S(=O)(=O)c1ccc(C(=O)N(CCCN(C)C)c2nc3cc(C)cc(C)c3s2)cc1	2203	14	9	-2
22	CCOC(=O)C1CCN(C(=O)CNS(=O)(=O)c2ccc(Br)s2)CC1	10399	5	-2	0
33	Cc1nnc(NC(=O)CSc2nnc(Cc3cccn3C)n2CCc2ccccc2)s1	10949	-15	7	5
44	Cc1csc(SCC(=O)N2CCN(S(=O)(=O)c3ccc(Cl)cc3)CC2)n1	2482	2	8	3
48	CCNC(=S)NNC(=O)c1csc2c1CCC(C)C2 (configuration not stated)	4602	·	·	0

item	RN4220 kill	Sa ugtP lethal	PrP UTR inh
13	-1.2	6	-5
14	3.2	3	·
21	-2.4	-28	-13
22	2.0	2	-5
33	-0.9	-5	-2
44	1.7	2	-40
48	-2.4	-4	-14

2 records drawn at random from the list so far, as already listed:
item	smiles	Autofluor counter	Mtb hypoxia inh	Mtb hypoxia inh growth	BJeLR lethal
61	Cc1ccc(CS(=O)(=O)Cc2ccc(C(=O)NCC3CCCO3)o2)cc1 (configuration not stated)	9319	-1	-7	-1
63	O=C(NCc1ccc(F)cc1)c1ccccc1OCc1ccccc1	2753	0	6	4

item	RN4220 kill	Sa ugtP lethal	PrP UTR inh
61	0.8	-2	-4
63	6.8	-11	-12
